A1 inhib – blocks A1 activity; actives 0.51% (n = 21,000); MEF A1-2A-BIM cells, caspase-Glo luminescence, 3 h; percent of clofoctol signal, DMSO as zero; caspase activation, % (no concentration beside the values); AID 2241;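 active = most replicate scores above 10, or exactly half above 10 with mean activity above 10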;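 also: effector caspase 3 and 7 activity cleaving a DEVD luciferin substrate; 50 nL library stock added to about 30 µL; numbers are from one replicate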
BJeLR viab HTS – BJeLR cell viability reduction | actives 0.64% (n = 30,000) | BJeLR fibroblasts viability, CellTiterGlo ATP luminescence, 48 h; HRASV12, hTERT and SV40 LT/ST transformed | viability loss activity score, % (concentration not given with the values); in the data active = viability loss activity score above about 50%; about a fifth of its hits are not listed in these tables;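 also: higher score means fewer live cells and less ATP luminescence; stock transfer was 50 or 100 nL into about 30 µL; 0% = vehicle wells and 100% = a reference killing control; one replicate is shown; the record names a cut of 85%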
* = called active by the depositor; . = no result given.

The line under a structure holds: A1 inhib, BJeLR viab HTS
COc1ccc(C2CC(=O)Nc3cc4c(cc32)OCO4)cc1 (stereo unspecified)
    0.8, 3.3
CO[C@@H]1[C@@H](OC(N)=O)[C@@H](O)[C@H](Oc2ccc3c(O)c(NC(=O)c4ccc(O)c(CC=C(C)C)c4)c(=O)oc3c2C)OC1(C)C
    -0.2, 0.2
C[C@@H]1CN([C@H](C)CO)C(=O)c2cc(NC(=O)C3CC3)ccc2O[C@H]1CN(C)C
    -0.3, 1.7
C[C@@H]1CN([C@@H](C)CO)C(=O)c2cc(N(C)C)ccc2O[C@H]1CN(C)S(=O)(=O)c1cn(C)cn1
    -1.1, -0.5
COc1ccc(S(=O)(=O)N(C)C[C@H]2Oc3ccc(NC(=O)Cc4ccccc4)cc3C(=O)N([C@@H](C)CO)C[C@@H]2C)cc1
    0.1, 5.3
CCn1c(SCC(=O)c2ccccc2)nc2sc3c(c2c1=O)CCC3
    -0.3, -3.5
CC(C)(C)OC(=O)N1CCC(CNS(=O)(=O)c2cc(Cl)sc2Cl)CC1
    ., -1.5
N#Cc1ccc(NC(=O)c2ccc(Br)o2)cc1
    -4.7, 4.1
C[C@H]1CN([C@@H](C)CO)C(=O)c2cc(NC(=O)NC3CCCCC3)ccc2O[C@H]1CN(C)C
    -0.4, -3.4
COc1ccc(S(=O)(=O)N(C)C[C@@H]2Oc3c(NC(=O)NC4CCCCC4)cccc3C(=O)N([C@H](C)CO)C[C@H]2C)cc1
    ., -4.0
COc1ccc(OC)c(NS(=O)(=O)c2ccccc2)c1
    -0.5, 1.3
Cc1cc(/C=C(/C#N)S(C)(=O)=O)c2c(C)ccc(C(C)C)cc1-2
    -0.7, -0.6
Clc1cc(Cl)cc(OCc2nn[nH]n2)c1
    0.4, 2.4
CC(=O)Nc1cccc(Oc2ncnc3scc(-c4ccc(C(C)C)cc4)c23)c1
    -0.3, 25.7
C[C@H]1CN([C@@H](C)CO)C(=O)c2cc(NC(=O)CCCN(C)C)ccc2O[C@@H]1CN(C)Cc1ccc(-c2ccccc2)cc1
    -0.2, 5.2
CCOC(=O)c1cc(CSc2n[nH]c(=O)n2-c2ccccc2)nn1C(C)(C)C
    -1.1, -2.6
N#Cc1c(/N=C/c2ccccc2)sc2c1CCCC2
    -5.5, -0.2
C[C@@H]1CN([C@H](C)CO)C(=O)c2cccc(NC(=O)c3ccc(-c4nccs4)cc3)c2O[C@@H]1CN(C)S(=O)(=O)c1ccc(Cl)cc1
    ., 2.1
CCCCC/C=C\C/C=C\CCCCCCCC(=O)O
    -0.8, -2.4
Cc1[nH]c(=O)[nH]c(=O)c1S(=O)(=O)N1CCC(C(=O)NC(C)c2ccccc2)CC1 (stereo unspecified)
    ., -0.8
N#CCc1ccc(OCc2cc(C(F)(F)F)cc(C(F)(F)F)c2)cc1
    -0.3, -0.4
C[C@H](CO)N1C[C@H](C)[C@H](CN(C)Cc2ccc3c(c2)OCO3)Oc2c(NC(=O)C3CC3)cccc2C1=O
    ., 1.7
COc1ccc(S(=O)(=O)N(C)C[C@H]2Oc3c(NS(=O)(=O)c4ccccc4)cccc3C(=O)N([C@@H](C)CO)C[C@H]2C)cc1
    ., 1.0
Cc1nc(-c2sc3ccc(Cl)cc3c2C)cs1
    -0.8, -1.5
C[C@H]1CN([C@@H](C)CO)C(=O)c2cccc(NC(=O)C3CCCCC3)c2O[C@H]1CN(C)CC1CC1
    ., 2.8
C[C@H](CO)N1C[C@H](C)[C@@H](CN(C)C(=O)Nc2cccc3ccccc23)Oc2c(NC(=O)Nc3ccc(C(F)(F)F)cc3)cccc2C1=O
    ., 5.0
COc1cccc(/C=C2\N=C(SC)SC2=O)c1
    -0.7, -4.0
Cc1ccccc1OCCNC(=O)c1ccco1
    0.6, -1.3
C[C@H]1CN([C@@H](C)CO)C(=O)c2cccc(NC(=O)c3nc4ccccc4s3)c2O[C@@H]1CN(C)S(=O)(=O)c1cn(C)cn1
    ., -5.1
C[C@H](CO)N1C[C@H](C)[C@@H](CN(C)C(=O)Nc2ccc3c(c2)OCO3)Oc2c(NS(=O)(=O)c3ccc(F)cc3)cccc2C1=O
    ., -0.3
COc1ccccc1N1CC(C)(C)C(=O)N(C(=O)c2ccc(C)cc2)C1=S
    0.0, -8.1
COc1ccc(CN(C)C[C@@H]2Oc3c(NC(=O)Nc4c(C)noc4C)cccc3C(=O)N([C@@H](C)CO)C[C@H]2C)cc1
    ., -1.5
C[C@H]1CN([C@@H](C)CO)C(=O)c2cc(NS(=O)(=O)c3ccc(F)cc3)ccc2O[C@@H]1CN(C)C(=O)Nc1ccc(F)cc1
    0.0, 2.1
CN(C(=O)c1ccccc1)c1ccccc1
    -0.6, 6.4
COc1ccc(-c2cc(-c3ccccc3)c(C#N)c(SCCS(=O)Cc3ccccc3)n2)cc1 (stereo unspecified)
    ., 0.2
O=C(c1cccs1)N1N=C2c3ccccc3CCC2C1c1ccccc1Cl (stereo unspecified)
    1.0, -5.9
COc1ccc(NC(=O)Nc2cccc3c2O[C@@H](CN(C)Cc2ccc(-c4ccccc4)cc2)[C@H](C)CN([C@@H](C)CO)C3=O)cc1
    ., -10.2
COC(=O)C1=COC(O[C@@H]2O[C@H](CO)[C@@H](O)[C@H](O)[C@H]2O)[C@@H]2[C@@](C)(O)[C@@H](OC(=O)/C=C/c3ccc(OC)cc3)C[C@]12O (stereo partly specified)
    0.4, 1.0
COc1ccc(CN(C)C[C@H]2Oc3ccc(NS(=O)(=O)c4ccc(F)cc4)cc3C(=O)N([C@@H](C)CO)C[C@@H]2C)cc1
    0.7, 0.4
Cc1noc(C)c1NC(=O)N(C)C[C@H]1Oc2c(NC(=O)c3ccncc3)cccc2C(=O)N([C@@H](C)CO)C[C@@H]1C
    ., 2.2
Oc1ccc(-n2cccc2)cc1
    0.2, -1.1
CC1(C)CC(=O)c2sc3nc(-c4ccc(Cl)cc4)cn3c2C1
    0.0, 9.3
C[C@H](CO)N1C[C@H](C)[C@@H](CN(C)S(C)(=O)=O)Oc2ccc(NS(=O)(=O)c3ccccc3)cc2C1=O
    0.1, 2.4
COc1c2ccoc2cc2oc(C)cc(=O)c12
    -0.2, -4.8
C[C@@H]1CN([C@H](C)CO)C(=O)c2cc(N(C)C)ccc2O[C@@H]1CN(C)S(=O)(=O)c1cccs1
    -0.1, -0.6
CNC[C@H]1Oc2ccc(NC(=O)NC3CCCCC3)cc2C(=O)N([C@@H](C)CO)C[C@H]1C
    -0.2, -1.4
CCN(C(=O)c1coc(=O)c2ccccc12)c1cccc(C(F)(F)F)c1
    ., 0.6
Cc1c(-c2ccccc2)[n+](=O)c(-c2ccco2)c(C)n1[O-]
    0.0, -3.3
C[C@H](CO)N1C[C@H](C)[C@H](CN(C)Cc2ccc(C(F)(F)F)cc2)Oc2c(NC(=O)C3CCOCC3)cccc2C1=O
    ., -3.5
C[C@@H]1CN([C@H](C)CO)C(=O)c2cc(NC(=O)Nc3ccc(C(F)(F)F)cc3)ccc2O[C@@H]1CN(C)Cc1ccc(-c2ccccc2)cc1
    0.3, 2.7

Six entries from above, in markdown.
| Molecule | A1 inhib | BJeLR viab HTS |
| --- | --- | --- |
| COc1c2ccoc2cc2oc(C)cc(=O)c12 | -0.2 | -4.8 |
| C[C@@H]1CN([C@H](C)CO)C(=O)c2cc(N(C)C)ccc2O[C@@H]1CN(C)S(=O)(=O)c1cccs1 | -0.1 | -0.6 |
| CNC[C@H]1Oc2ccc(NC(=O)NC3CCCCC3)cc2C(=O)N([C@@H](C)CO)C[C@H]1C | -0.2 | -1.4 |
| CCN(C(=O)c1coc(=O)c2ccccc12)c1cccc(C(F)(F)F)c1 | . | 0.6 |
| Cc1c(-c2ccccc2)[n+](=O)c(-c2ccco2)c(C)n1[O-] | 0.0 | -3.3 |
| C[C@H](CO)N1C[C@H](C)[C@H](CN(C)Cc2ccc(C(F)(F)F)cc2)Oc2c(NC(=O)C3CCOCC3)cccc2C1=O | . | -3.5 |

(further entries)
The line under a structure holds: A1 inhib, BJeLR viab HTS
C[C@@H]1CN([C@H](C)CO)C(=O)c2cc(NC(=O)Nc3ccc4c(c3)OCO4)ccc2O[C@@H]1CN(C)Cc1ccc(C(=O)Nc2ccccc2N)cc1
    ., 1.7
O=C(CC(=O)Nc1ccccn1)Nc1ccc2nc3n(c(=O)c2c1)CCCCC3
    -0.3, -3.0
COCC(C)NC(=O)c1ccc(OC(C)=O)cc1 (stereo unspecified)
    -0.2, -1.7
CC(C)NC(=O)Nc1ccc2c(c1)C(=O)N([C@@H](C)CO)C[C@H](C)[C@@H](CN(C)C(=O)Nc1ccc(C(F)(F)F)cc1)O2
    1.3, 0.4
C[C@H](CO)N1C[C@H](C)[C@@H](CN(C)C(=O)Nc2cccc3ccccc23)Oc2ccc(NS(=O)(=O)c3cn(C)cn3)cc2C1=O
    0.8, -0.7
C[C@H]1CN([C@@H](C)CO)C(=O)c2cc(NC(=O)Cc3cn(C)c4ccccc34)ccc2O[C@@H]1CN(C)C(=O)NC1CCCCC1
    2.1, -1.9
C[C@@H]1CN([C@H](C)CO)C(=O)c2cccc(NC(=O)NC3CCCCC3)c2O[C@@H]1CN(C)C(=O)Nc1cccc2ccccc12
    ., -0.1
C[C@H]1CN([C@@H](C)CO)C(=O)c2cc(NS(=O)(=O)c3ccccc3)ccc2O[C@H]1CN(C)C(=O)Nc1ccc(C(F)(F)F)cc1
    -0.3, 3.5
CCOC(=O)c1c(C)cc(O)cc1O
    0.2, -6.3
C=CCNC(=S)N1CCc2c([nH]c3ccccc23)C1C(F)(F)F (stereo unspecified)
    0.2, 0.7
Cc1cc(NC(=O)C(F)(F)F)n(-c2ccccc2)n1
    ., 1.2
Cc1cc(C)c2cc(C(=O)N3CCN(c4ncccc4C(F)(F)F)CC3)[nH]c2c1
    -0.3, 4.6
C[C@@H]1CN([C@@H](C)CO)C(=O)c2cc(NC(=O)Nc3ccc(F)cc3)ccc2O[C@@H]1CN(C)Cc1ccc2c(c1)OCO2
    -0.3, -0.1
COc1ccc(C2C3CCc4ccccc4C3=NN2CCOC(=O)C2CC2)cc1 (stereo unspecified)
    ., 4.3
Cc1ccc(CSc2ncnc3sc4c(c23)CCC4)cc1
    0.6, -1.8
COc1ccc2c(c1)SC1=NC(=O)C(Cc3ccccc3)C(=O)N12 (stereo unspecified)
    -0.5, 5.2
C[C@H](CO)N1C[C@H](C)[C@H](CN(C)Cc2ccncc2)Oc2ccc(NC(=O)CCN3CCOCC3)cc2C1=O
    -1.0, 2.9
COc1cccc(OC)c1C(=O)N[C@@H]1C(=O)N2[C@@H]1SC(C)(C)[C@@H]2C(=O)O
    0.2, 11.3
CCC(Sc1nc2cc3c(cc2c(=O)n1Cc1ccco1)OCO3)C(=O)NCc1ccc(C)cc1 (stereo unspecified)
    14.6*, 6.2
C[C@@H]1CN([C@@H](C)CO)C(=O)c2cc(NS(C)(=O)=O)ccc2O[C@H]1CN(C)CC1CCCCC1
    -0.4, 1.7
Cc1cc(C(=O)Nc2cccc3c2O[C@@H](CN(C)C(=O)Nc2ccc(F)cc2)[C@H](C)CN([C@@H](C)CO)C3=O)n(C)n1
    ., -5.6
C[C@@H]1CN([C@H](C)CO)C(=O)c2cccc(NS(=O)(=O)c3cccs3)c2O[C@@H]1CN(C)C(=O)Nc1ccc(C(F)(F)F)cc1
    ., -0.3
CCCCC1CCC(C(=O)N(Cc2sccc2C)C2CCS(=O)(=O)C2)CC1 (stereo unspecified)
    -0.8, -9.3
CC1(C)Cc2c(sc(NC(=O)C(c3ccccc3)c3ccccc3)c2C#N)CO1
    0.7, -0.5
COC(=O)c1sc2ccccc2c1NC(=O)c1ccc(S(=O)(=O)N(C)c2ccccc2)cc1
    -0.5, 1.6
C[C@H]1CN([C@@H](C)CO)C(=O)c2cc(NC(=O)Nc3ccc(F)cc3)ccc2O[C@@H]1CN(C)CC1CC1
    0.5, -2.0
CCOC(=O)c1cccc(NC(=O)Cn2ncc3c(C)n(Cc4ccc(F)cc4)c(C)c3c2=O)c1
    0.4, -1.2
Cc1c(C(=O)N(C)C)sc2c1c(=O)n(Cc1ccccc1)c(=O)n2Cc1ccccc1C#N
    ., -5.3
CC(C)NC(=O)N(C)C[C@H]1Oc2ccc(NC(=O)CCN3CCOCC3)cc2C(=O)N([C@@H](C)CO)C[C@@H]1C
    0.7, 2.5
COc1ccc(S(=O)(=O)N(C)C[C@@H]2Oc3ccc(NC(=O)Nc4ccc(F)cc4)cc3C(=O)N([C@@H](C)CO)C[C@H]2C)cc1
    0.7, 7.6
S=C(Nc1ccccc1)N1CCCN1c1ccccc1
    0.9, 2.1
Cc1ccc(-c2nn(C)c(=O)c3ccccc23)cc1CNC(=O)CSc1nc2ccccc2s1
    ., -4.2
COc1ccc(S(=O)(=O)N(C)C[C@H]2Oc3ccc(NC(=O)NC4CCCCC4)cc3C(=O)N([C@H](C)CO)C[C@H]2C)cc1
    1.3, 11.9
c1ccc(Nc2ccc(-n3ccnc3)nn2)cc1
    -1.6, -6.9
O=C1CC(c2ccccc2F)C2=C(CC(c3ccc(F)cc3)CC2=O)N1 (stereo unspecified)
    ., 4.3
NC(=S)c1cnn2c(C(F)(F)F)cc(C(F)(F)F)nc12
    -0.6, -0.2
S=c1[nH]nc(Cc2ccsc2)n1Cc1ccccc1
    0.2, 1.2
CCc1ccc(/C=C2\Sc3ccccc3N(CC(=O)O)C2=O)cc1
    -0.2, 0.7
C[C@@H]1CN([C@H](C)CO)C(=O)c2cccc(NS(=O)(=O)c3ccc(F)cc3)c2O[C@@H]1CN(C)Cc1ccccc1
    ., -1.9

Bioassay records as filed in PubChem BioAssay.

An excerpt. The share of hits here may be higher or lower than overall.
